ALR H2O2 inh: inhibitors of human sulfhydryl oxidase ALR; P55789; purified ALR, DTT oxidation, H2O2 HRP-luminol luminescence; inhibition, % (test concentration not listed); 3.8% of 290,000 active; AID 485317;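 active = mean and each replicate at 75% or more; inconclusive = only one of the two met; inactive = neither met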;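 note: stock transfer was 7.5 nL into about 7.5 µL; 0% = neutral wells and 100% = wells with inactivated enzyme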
Target sequence (P55789 whole entry, looked up): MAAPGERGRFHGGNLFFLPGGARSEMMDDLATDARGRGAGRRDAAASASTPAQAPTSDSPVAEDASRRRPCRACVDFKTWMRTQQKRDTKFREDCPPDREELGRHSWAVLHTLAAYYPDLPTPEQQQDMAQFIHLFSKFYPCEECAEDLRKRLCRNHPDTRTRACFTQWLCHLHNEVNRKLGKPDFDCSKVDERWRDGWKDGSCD
Vif TR-FRET: inhibitors of Vif binding to APOBEC3G peptide, primary screen, biochemical, TR-FRET, GST-Vif 1-94, biotin-A3G peptide, dose response retest (AID 1117319) | TR-FRET GST-Vif / biotin-A3G peptide binding; higher % means a stronger effect; test concentration not given here; strong numbers were not always called active | inhibition, %; hits with a dose series show IC50 in µM | 0.57% of 260,000 active;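 active = above the screen mean plus three standard deviations and confirmed in dose response; inconclusive = results disagree or hit not tested in dose response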;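 note: Vif residues 1-94 fused to GST binding biotinylated APOBEC3G peptide 110-148; 0% = full assay without inhibitor and 100% = GST in place of GST-Vif; retest series ran down from 100 µM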
HNF4A DNA FP: change in binding of human HNF4 alpha to DNA. P41235. activity change, % at 10 µM. 0.3% of 360,000 active. HNF4a-FITC DNA binding, fluorescence polarization, 1 h; in the data active = activity change above about 30%, passing the limit was not always enough;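 note: controls were the assay level and a saturating level of protein; the project sought stronger binding though the title names inhibitors; some compounds called inactive have numbers as strong as hits; positive values seem to mean higher polarization but the record does not say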
Target sequence (P41235 whole entry, looked up): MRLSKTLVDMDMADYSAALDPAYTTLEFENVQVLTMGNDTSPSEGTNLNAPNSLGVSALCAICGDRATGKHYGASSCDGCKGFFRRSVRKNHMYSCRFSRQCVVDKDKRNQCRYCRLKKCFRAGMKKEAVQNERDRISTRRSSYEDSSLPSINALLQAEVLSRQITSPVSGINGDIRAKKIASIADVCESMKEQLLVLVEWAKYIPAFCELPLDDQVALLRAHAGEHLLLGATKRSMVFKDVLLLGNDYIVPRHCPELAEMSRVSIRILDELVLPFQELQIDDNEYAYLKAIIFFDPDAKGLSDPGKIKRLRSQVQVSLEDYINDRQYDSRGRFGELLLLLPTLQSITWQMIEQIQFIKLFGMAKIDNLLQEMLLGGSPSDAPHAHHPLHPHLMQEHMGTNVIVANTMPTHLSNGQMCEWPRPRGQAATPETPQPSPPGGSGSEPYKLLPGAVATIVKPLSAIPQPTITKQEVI
FGF22 binding: binders of recombinant human FGF22 by thermal shift; 1.5% of 340,000 active; calls only at 9.99 µM; SYPRO orange fluorescence; percent of sucrose octasulfate shift, DMSO zero;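 active = melting point raised past a set limit in the mean and every replicate; inconclusive = no clear call; three in four hits are not shown here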
Target sequence (Q9HCT0 whole entry, looked up): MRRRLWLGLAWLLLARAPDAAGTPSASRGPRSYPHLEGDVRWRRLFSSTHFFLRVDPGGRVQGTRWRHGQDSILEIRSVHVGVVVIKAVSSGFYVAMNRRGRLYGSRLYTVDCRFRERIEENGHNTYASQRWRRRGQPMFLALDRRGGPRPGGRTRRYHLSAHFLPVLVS
Ecoli rRNA inh: selective bacterial rRNA inhibition in E. coli; E. coli WT GFP vs humanized-ribosome RFP mutants, fluorescence, 24 h; stronger effect = lower value; DMSO median 0, no signal -100; GFP signal change (wild-type ribosome), % (test concentration not listed); 1.6% of 350,000 active; AID 720706;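 active = significant combined selectivity score with lowered wild-type GFP, culture density cut under 30%, mutant RFP and density less affected; inactive = any of these conditions unmet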; note: one replicate is shown; some compounds called inactive have numbers as strong as hits
AF4-AF9 inh: inhibitors of human MLL-AF4/AF9 interaction; P42568; AlphaScreen, biotin-AF4 peptide binding to FLAG-AF9; inhibition, % at 10 µM; 0.47% of 350,000 active;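 active = every replicate reaching a set inhibition limit, whatever the replicate mean, cut at about 25% in these data; inconclusive = mean inhibition reaches that limit but some replicates miss it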;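 note: 0% = plate neutral control median and 100% = total signal loss; the record names both 10 and 1 µM as test concentration; the first replicate is given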
Ecoli growth: inhibitors of Escherichia coli growth | OD600, 23 h; stronger effect = lower value | OD600 absorbance (no concentration beside the values) | 0.21% of 330,000 active;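 active = OD600 absorbance below the run mean of sample wells minus 3.6 SD, in any replicate, cut at about 0.56 in these data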;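 note: stock transfer was 300 nL into about 60 µL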
Ecoli rRNA inh OD600: also measured in Ecoli rRNA inh; calls as there; OD600 change, %; measured here: OD600 growth;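 optical density of the mix in the first replicate; 0 = DMSO median and -100 = no signal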
Ecoli rRNA inh RFP: recorded beside Ecoli rRNA inh, whose call it bears; RFP signal change, %; measured here: RFP humanized mutant strains;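 first replicate; 0 = DMSO median and -100 = no signal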
* hit, by the source's call; i = inactive; ? = inconclusive; nt = not tested or not shown; & = joins results of further samples.

Sequence of screens: ALR H2O2 inh, Vif TR-FRET, HNF4A DNA FP, FGF22 binding, Ecoli rRNA inh, Ecoli rRNA inh OD600, Ecoli rRNA inh RFP, AF4-AF9 inh, Ecoli growth
- COc1ccc(C2CCN(Cc3cccnc3)CC2O)cc1 (configuration not stated)
→ 2, 12%, 3.5, nt, 1, 16, -2.2, nt, 0.71
- C[C@@H]1CN([C@@H](C)CO)C(=O)c2cc(NC(=O)Nc3ccc(C(F)(F)F)cc3)ccc2O[C@@H](C)CCCCO[C@@H]1CN(C)Cc1ccc2c(c1)OCO2
→ nt, nt, nt, i, 0, 5, -0.1, -0.8, nt
- COc1cc2c(cc1NC(=O)CN1CCN(S(=O)(=O)c3ccc(C)cc3)CC1)oc1ccccc12
→ 8, 7%&-8%, 1.4, nt, nt, nt, nt, nt, 0.71
- CC1CN(C(=O)COC(=O)c2cc(=O)c3ccccc3o2)CC(C)O1 (configuration not stated)
→ nt, nt, -4.0, i, 8, 11, -0.6, 3.6, 0.69
- CCNC(=O)N1C[C@H]2CON(C)[C@H]2C[C@H]1c1ccccc1Br
→ nt, -7%, 3.5, i, nt, nt, nt, -4.7, nt
- CCNC(=O)[C@H]1[C@H](CO)[C@H]2Cn3c(ccc(C4=CCCC4)c3=O)[C@@H]1N2C(=O)CC
→ nt, nt, nt, i, 2, 1, 0.5, -1.7, nt
- COc1ccc(S(=O)(=O)N(C)C[C@@H]2Oc3ncc(/C=C/c4ccccc4)cc3C(=O)N([C@@H](C)CO)C[C@@H]2C)cc1
→ nt, nt, nt, i, -5, -4, 0.3, 7.0, nt
- Cc1ccc(S(=O)(=O)N[C@H]2CC[C@@H](CCNC(=O)c3ccc4c(c3)OCO4)O[C@H]2CO)cc1
→ nt, nt, nt, i, -2, -1, -3.1, -6.5, nt
- Oc1ccc(C[C@@H]2CNC(=S)N2CCc2cc(C(F)(F)F)cc(C(F)(F)F)c2)cc1
→ -5, nt, -7.7, i, -26, -40, 7.4, 0.8, nt
- Cc1c(-n2c(CN3C(=O)c4ccccc4C3=O)nc3ccccc3c2=O)c(=O)n(-c2ccccc2)n1C
→ nt, -4%, 2.7, nt, nt, nt, nt, nt, 0.72
- O=C(NCC1CC1)[C@H]1[C@H](CO)[C@H]2Cn3c(ccc(-c4cccnc4)c3=O)[C@@H]1N2Cc1nccs1
→ nt, nt, nt, i, -1, -2, -1.8, -1.7, nt
- Cc1cc(=O)[nH]c(SCC(=O)NC2CCCc3ccccc32)n1 (configuration not stated)
→ nt, nt, 1.3, i, 17, 12, -0.9, -5.9, 0.65
- Cc1ccc(-c2cnc3cc(C)nn3c2)cc1
→ -7, nt, -1.1, i, 6, 10, -0.1, -1.5, 0.71
- COc1ccc(CCN(C)C2CCCN(S(=O)(=O)c3ccc(C)cc3)C2)cc1OC (configuration not stated)
→ -8, nt, 1.3, i, -3, 0, -2.9, 1.6, 0.68
- Cc1ccc(OCC(=O)Nc2ccccc2N2CCCC2)c(C)c1
→ -3, 4%, -0.8, i, -27*, -21*, 0.2*, 8.0, 0.64
- CCOc1ccccc1NC(=O)Cn1c(=O)oc2ccccc21
→ 1, 6%, -1.3, nt, 12, 12, 4.4, -0.8, 0.64
- Cc1ccc2c(c1)CCCN2C(=O)CSc1ccccc1
→ -4, nt, -1.9, i, -39, -49, -9.1, -1.7, 0.68
- O=C(C=Cc1ccccc1F)c1ccccc1
→ nt, nt, 5.9, i, 10, 16, 1.5, -0.8, nt
- Cc1cc(C)cc(Oc2coc3cc(O)ccc3c2=O)c1
→ 3, nt, -1.8, i, -15, -21, -3.5, 2.5, 0.68
- COc1cccc(C2=Cc3ccc(F)cc3C(CC(C)=O)N2c2ccc(C#CC3(O)CCCCC3)cc2)c1 (configuration not stated)
→ nt, nt, 4.2, i, -25, -30, -2.5, -5.6, nt
- O=[N+]([O-])c1cc(Br)c2c(c1)CCN2
→ nt, -5%, -0.7, i, -4, 13, -4.8, 2.1, nt
- Cc1nnc(SCc2cc(=O)[nH]c(N3CCN(C)CC3)n2)s1
→ -6, nt, -0.2, nt, nt, nt, nt, nt, 0.68
- CCCN(C)C[C@@H]1Oc2cc(C#Cc3ccc(F)cc3)ccc2S(=O)(=O)N([C@H](C)CO)C[C@H]1C
→ nt, nt, nt, i, -1, -5, 3.4, 2.2, nt
- COc1cc2c(cc1OC)-c1nc3ccccc3c(=O)n1C(C)(C)C2
→ -9, 3%, 1.6, nt, nt, nt, nt, nt, 0.67
- CCCCNC(=O)C1C2C=CC3(CN(Cc4ccccc4Cl)C(=O)C13)O2 (configuration not stated)
→ 4, 5%, -7.5, nt, nt, nt, nt, nt, 0.7
- FC(F)Oc1ccc(NC(=S)NN2CCOCC2)cc1
→ 11, 0%, -1.8, nt, nt, nt, nt, nt, 0.66
- Cc1cccc([C@@H](NC(=O)OC(C)(C)C)C(=O)OC(C)(C)C)c1
→ -1, nt, 0.3, i, 2, 8, -2.4, -3.0, nt
- Cc1c(C)c(C)c(CO/N=C/c2cccs2)c(C)c1C
→ -13, 16%, 5.7, i, 17, -1, 1.2, -1.1, nt
- CCCC(=NC(C)CC)C1=C(O)CC(c2ccccc2)CC1=O (configuration not stated)
→ 3, nt, -0.3, i, -6, -24, 0.6, -4.1, 0.66
- CCOC1=C2CN(S(=O)(=O)c3ccc(C)cc3)[C@H](c3ccccc3)C[C@@H]2N(S(=O)(=O)c2ccc(C)cc2)[C@H](c2ccccc2)C1
→ nt, nt, 3.0, i, 8, 15, 2.6, -1.1, nt
- CCSc1nnc2ccc(-c3cccs3)nn12
→ 1, -11%, 1.2, i, -7, -9, -7.8, -6.9, 0.63
- Cn1c(CO)nc2cc(N)ccc21
→ 80*, ?, 6.8, nt, nt, nt, nt, nt, 0.68
- CCC(C)[C@H](NC(=O)Nc1ccccc1F)C(=O)OC (some centres not stated)
→ 0, 85%, -0.1, i, 18, 1, 0.4, -1.6, 0.64
- CC(C)(C)c1cc(NC(=O)COC(=O)c2ccc(O)cc2O)n(-c2ccccc2)n1
→ 18, -4%, 2.4, nt, -7, -29, 0.5, -7.9, 0.69
- Cc1nnc(SCC(=O)Nc2ccc(S(N)(=O)=O)cc2)n(N)c1=O
→ 99*, -3%, -1.8, i, 17, 26, 1.9, 0.3, 0.65
- CO[C@H](CN(C)Cc1cc(F)ccc1F)[C@@H](C)CN([C@@H](C)CO)S(=O)(=O)c1ccc(C)cc1
→ nt, nt, nt, i, -4, -6, 1.4, 0.1, nt
- COc1ccc(CN2CCCC(CO)(Cc3ccc(F)cc3F)C2)cc1 (configuration not stated)
→ -1, nt, 1.8, i, 0, -14, -1.1, -1.3, 0.69
- C=CCN=C1S/C(=C/c2cccc([N+](=O)[O-])c2)C(=O)N1CC=C
→ nt, 11%, -5.9, i, 11, 1, 0.9, 5.3, 0.69
- COc1ccc(-c2cc(C(=O)OCC(=O)NC(C)(C)C)c3ccccc3n2)cc1
→ 1, 1%, -3.3, nt, nt, nt, nt, nt, 0.68
- CC(C)O/N=C1\C(=O)N(c2ccccc2)c2ccccc21
→ -3, 7%, -1.1, i, -32, -29, -3.1, 12, nt
- CO/C=C\C=C/c1nnn(-c2ccc(Cl)cc2)n1
→ 10, 0%, 1.5, i, -5, -14, -1.3, -7.7, nt
- Cc1ccc(SCC(=O)OCC(=O)N2CCN(C(=O)c3ccco3)CC2)c(C)c1
→ 21, 14%, -0.3, i, -3, -8, 0.0, -19, 0.66
- COc1cccc(C2CC(c3cccc(NS(C)(=O)=O)c3)=NN2C(=O)c2ccccc2)c1OC (configuration not stated)
→ -4, 1%, 7.0, i, -3, -9, 18, 4.8, 0.64
- Cc1ccc(C)c(-n2c(-c3csc(C)c3)n[nH]c2=S)c1
→ 30, 0%, 2.3, nt, nt, nt, nt, nt, 0.71
- Cc1ccc(CNS(=O)(=O)NCc2ccccc2F)cc1
→ -2, -5%, -4.3, i, -1, 4, 10, -1.7, 0.7
- CCOC(=O)c1c(C)c[nH]c1C
→ 0, 4%, 3.3, nt, 4, 11, 12, 1.0, 0.72
- COc1cccc(-c2cc(C(=O)N3CCN(S(=O)(=O)c4ccc(Br)cc4)CC3)[nH]n2)c1
→ -2, nt, -2.1, i, 8, 14, 10, 0.5, 0.68
- CC1=NN(C(=O)COc2ccc(C)c(C)c2)C(O)(c2ccccc2)C1 (configuration not stated)
→ nt, -4%, 0.1, i, -11, -12, 1.1, 2.1, 0.7
- COc1ccc(C#Cc2cnc3c(c2)C(=O)N([C@@H](C)CO)C[C@H](C)[C@H](CN(C)C(=O)CN(C)C)O3)cc1
→ nt, nt, nt, i, 3, 3, 2.6, -16, nt
- C=CCOc1ccc(-c2nc3c(c(=O)[nH]c(=O)n3CCC)n2CCCC)cc1
→ -3, nt, 0.7, i, 3, -1, -0.3, -1.8, 0.67
- C#CCOCCOCCOCCNc1nc(N2CCN(C(=O)Cn3cc(CCO)nn3)CC2)nc(N2CCN(C(=O)Cn3cc(CCCN=C(N)N)nn3)CC2)n1
→ nt, nt, -3.5, i, 15, 12, -3.3, -10, nt
- O=C(O)C1CCN(C(=O)c2cccc3ccccc23)CC1
→ 0, nt, -0.9, i, 10, 18, 1.6, 0.6, 0.7
- Cn1c(NC(=O)c2ccccc2Br)cc(=O)n(C)c1=O
→ -36, -3%, 3.0, i, 10, 9, -1.0, -8.2, 0.76
- CCc1ccc(OCc2n[nH]c(=S)n2Cc2ccccc2)cc1
→ 12, 17%, 0.9, i, -10, -12, 3.6, -2.5, 0.7
- COc1ccc(S(=O)(=O)N(C)C)cc1NC(=O)CN1C(=O)NC2(CCCC2)C1=O
→ 1, nt, -1.3, i, 1, -4, -0.4, -0.4, 0.71
- CSc1ccc(S(=O)(=O)NC2CC2)cc1
→ nt, nt, -2.4, i, -4, -19, -4.0, -1.0, 0.66
- C[C@H]1CN([C@@H](C)CO)C(=O)c2cc(NC(=O)Cn3cnnn3)ccc2O[C@H]1CN(C)C
→ nt, nt, nt, i, 4, 0, -4.3, -3.3, nt
- COc1cccc(-c2ccc3c(c2)[C@@H]2[C@@H](CCN2C(=O)c2ccc(F)cc2)[C@H](CO)N3)c1
→ nt, nt, nt, i, -5, -54, 22, -4.1, nt
- Cc1ccc(Nc2nc(CSc3nnnn3-c3ccccc3)cs2)cc1
→ 9, -4%, 5.2, nt, nt, nt, nt, nt, 0.71
- COc1oc(-c2ccc(Cl)cc2)nc1C(F)(F)F
→ nt, -3%, 3.1, nt, nt, nt, nt, nt, 0.7

Reprinted from the part before: 2 compounds, followed by the next part.
Sequence of screens: ALR H2O2 inh, Vif TR-FRET, HNF4A DNA FP, FGF22 binding, Ecoli rRNA inh, Ecoli rRNA inh OD600, Ecoli rRNA inh RFP, AF4-AF9 inh, Ecoli growth
- Cc1ccc(Nc2nc(CSc3nnnn3-c3ccccc3)cs2)cc1
→ 9, -4%, 5.2, nt, nt, nt, nt, nt, 0.71
- COc1oc(-c2ccc(Cl)cc2)nc1C(F)(F)F
→ nt, -3%, 3.1, nt, nt, nt, nt, nt, 0.7
- COc1cccc(S(=O)(=O)N[C@H]2CC[C@H](CC(=O)NC3CCC3)O[C@@H]2CO)c1
→ nt, nt, nt, i, 0, 3, -0.1, -1.4, nt
- O=[N+]([O-])c1ccc(N/N=C\c2ccccc2OCc2ccccc2)cc1
→ -3, -9%, 27, i, 7, 10, 2.8, -12, nt
- CCCNC(=O)N1C[C@H](O)COC[C@@H]2O[C@H](CC(=O)N3CCC(Cc4ccccc4)CC3)CC[C@H]21
→ nt, nt, nt, i, -6, -14, -2.3, -1.7, nt
- Cc1cc(Cl)ccc1-c1cc2nc(NCCCN(C)C)n(C)c(=O)c2s1
→ nt, nt, -1.3, i, -21, -37, -4.2, 4.3, nt
- O=S1(=O)N[C@H](c2ccccc2)C[C@H](c2ccc(C(F)(F)F)cc2)O1
→ -5, nt, -2.5, i, 8, 8, 5.6, 3.5, nt

These rows are one share of the data. The share of hits here may be higher or lower than overall.
